YopH PTP inh – YopH tyrosine phosphatase inhibitors, primary screen, biochemical, fluorescence Ex485/Em525. AID 898, 2007. 140,000 tested, 0.16% active. inhibition, %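 (about 10 µM by stock and volumes)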. YopH tyrosine phosphatase [Yersinia enterocolitica];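 active = inhibition of 50% or more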;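 also: controls were vehicle for no effect and minimum signal wells for full effect; inactives centre near -20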
Mtb H37Rv – M. tuberculosis H37Rv growth inhibitors, H37Rv strain (AID 1626). M. tuberculosis H37Rv growth inhibition; higher % means a stronger effect. inhibition, % at 10 µM; hits with a dose series show IC50 in µM. 220,000 tested, 0.95% active;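 active = confirmed in a dose series; inconclusive = inhibition above 80% but not taken into the dose series; inactive = below 80% or under 30% at every dose of the series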;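 also: bacteria incubated seven days before Alamar blue readout; 0% = bacteria only wells and 100% = bacteria with antibiotic wells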
RecA splice inh – Mtb RecA intein splicing inhibitors, primary screen, biochemical, fluorescence, HTS; inhibition, %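 (about 9 µM by stock and volumes)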; Protein RecA (Mycobacterium tuberculosis (strain ATCC 25618 / H37Rv)), P9WHJ3; 290,000 tested, 0.75% active; cell-free RecA intein splicing; in the data active = inhibition above about 30%; inconclusive = no clear call, values can overlap the other calls;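 also: 0% = vehicle wells and 100% = reference inhibitor control wells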
Target sequence (P9WHJ3 whole entry, looked up, canonical isoform): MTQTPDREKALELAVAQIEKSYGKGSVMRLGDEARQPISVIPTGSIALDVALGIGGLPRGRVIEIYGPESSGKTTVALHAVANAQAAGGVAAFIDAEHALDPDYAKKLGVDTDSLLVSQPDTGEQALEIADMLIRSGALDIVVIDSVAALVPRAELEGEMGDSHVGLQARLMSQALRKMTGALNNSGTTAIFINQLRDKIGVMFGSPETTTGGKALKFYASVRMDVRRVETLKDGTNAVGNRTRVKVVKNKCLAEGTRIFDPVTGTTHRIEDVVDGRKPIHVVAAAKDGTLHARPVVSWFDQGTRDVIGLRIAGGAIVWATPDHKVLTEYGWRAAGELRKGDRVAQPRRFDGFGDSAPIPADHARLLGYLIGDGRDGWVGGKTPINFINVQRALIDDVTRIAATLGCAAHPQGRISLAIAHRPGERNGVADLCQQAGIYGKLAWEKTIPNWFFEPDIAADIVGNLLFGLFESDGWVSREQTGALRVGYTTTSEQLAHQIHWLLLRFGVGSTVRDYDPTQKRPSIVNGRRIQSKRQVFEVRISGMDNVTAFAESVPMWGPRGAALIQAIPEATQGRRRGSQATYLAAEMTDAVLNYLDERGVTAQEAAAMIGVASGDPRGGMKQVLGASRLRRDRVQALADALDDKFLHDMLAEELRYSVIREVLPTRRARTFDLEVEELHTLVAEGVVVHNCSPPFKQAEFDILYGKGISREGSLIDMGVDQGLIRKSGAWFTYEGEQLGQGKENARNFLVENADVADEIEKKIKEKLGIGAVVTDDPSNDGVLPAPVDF
Mtb bLac sens – beta-lactam sensitization of Mtb H37Rv, H37Rv | M. tuberculosis H37Rv growth with meropenem, percent inhibition; hits of this screen are not shown here | inhibition, % at 25 µM | 330,000 tested, 0.27% active;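 active = about 74% or more and at least 40 points above the plate without the antibiotic, then above 30% in a dose series; inconclusive = first-round hits that could not be retested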;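 also: growth measured after seven days incubation then overnight dye step; 0% = bacteria only wells and 100% = bacteria with antibiotic; twin plates without the antibiotic show which effects depend on it; some results filed as inactive read as strong as hits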
Arbovirus anti – antivirals against arbovirus infection, primary screen, cell-based, full library, 10K replicate subset; arbovirus infection cell-based antiviral screen; inhibition, % at 10 µM; 200,000 tested, 0.37% active;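 active = inhibition from about 30%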;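 also: bluetongue infection of BSR cells; cell survival read as ATP light after 72 h; 0% = infected wells without compound and 100% = uninfected wells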
Arbovirus anti repeat – further read-out of Arbovirus anti, marked with its call; inhibition, %; measured here: 10K subset replicate screen; many hits read low in the repeat;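 first of two repeat runs on a subset; 0% = infected and 100% = uninfected wells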
* hit, by the source's call; ? = inconclusive; . = not tested or not shown. The list is partial; the hit share may differ from the screen's.

SMILES | YopH PTP inh | Mtb H37Rv | RecA splice inh | Mtb bLac sens | Arbovirus anti | others
Cc1ccc(S(=O)(=O)NCCC(=O)NCC(c2cccs2)N2CCOCC2)cc1 (stereo unspecified) | . | . | -3.3 | -5.9 | .
O=C(NCc1n[nH]c(=S)n1-c1ccc(F)cc1)c1ccc(S(=O)(=O)N2CCOCC2)cc1 | . | 1.9% | 0.2 | -0.5 | 4.6
Cc1ccc(C(=O)CSc2n[nH]c(C)n2)cc1 | -44.6 | 0.2% | 1.9 | 2.6 | -5.6
COc1cccc(C(=O)Oc2ccc3ccc(O)cc3c2)c1 | . | . | 7.6 | 88.1 | .
Cn1c(=O)n(CC(=O)NCC2CCCO2)c(=O)c2c3c(sc21)CCCC3 (stereo unspecified) | . | . | 2.9 | -3.0 | .
O=C(N/N=C/c1c(-c2ccccc2)[nH]c2ccccc12)c1cccnc1 | . | 1.0% | 0.8 | 1.6 | -11.4
Cc1ccc(N(CCCCN2C(=O)c3ccccc3C2=O)C(=O)c2cccc([N+](=O)[O-])c2)cc1 | -30.7 | 1.1% | 7.8 | 4.1 | 5.5
CCCCN(CC)CCCNC(=O)c1ccc(CSc2nc3ccncc3[nH]2)cc1 | . | 6.5% | -3.0 | -3.1 | 7.3
COc1ccc(Cc2nnc(NC(=O)C3CCN(C(=O)c4ccco4)CC3)s2)cc1 | . | . | 2.8 | 2.3 | .
CC(=O)c1sc(NC(=O)c2c(F)cccc2F)nc1C | -6.9 | -0.5% | -2.5 | 0.0 | -0.8
COc1ccc2c(c1)c1c3n2CCN(C)C3=NCC1 | -17.4 | -9.7% | -3.5 | 41.1 | -1.2
N#Cc1cc([N+](=O)[O-])ccc1NCC1CCCO1 (stereo unspecified) | . | . | 1.7 | 1.0 | .
c1ccc(NCC2OCc3ccccc3CO2)cc1 | -20.7 | 7.8% | 1.6 | -0.8 | -5.3
COC(=O)c1ccc(N(CC(=O)NCC2CCCO2)C(=O)CCC(=O)Nc2cc(C)on2)cc1 (stereo unspecified) | . | . | 2.5 | 1.3 | .
C=CCc1ccc(OCC(O)CO)c(OC)c1 (stereo unspecified) | 7.8 | . | -5.8 | 0.4 | 4.3
Cc1nn(C)c(C)c1NS(=O)(=O)c1ccccc1 | -42.1 | -7.5% | 1.0 | 3.8 | 3.3 | Arbovirus anti repeat=1.0
COC(=O)CC1(C(=O)OC)Oc2ccc(Br)cc2C(=O)N1c1cc(Cl)c(Cl)cc1Cl (stereo unspecified) | . | -10.4% | 14.7 | -10.3 | .
O=C(O)CCCN1C(=O)C2C3CC(C2C1=O)C1C(c2ccccc2)c2sc(=O)n(-c4ccccc4)c2SC31 (stereo unspecified) | . | 0.2% | -1.9 | -4.1 | 16.1
CN(C)c1nc(Cl)nc(N(C#N)CCOc2ccccc2)n1 | . | -0.5% | 0.6 | 1.8 | 2.3
NC(=O)C1CCCN(C(=O)c2ccc(Cl)cc2)C1 (stereo unspecified) | 29.1 | -0.9% | -1.0 | 5.3 | 7.9
O=C(O)CCc1ccc(-c2ccccc2)o1 | -6.3 | -4.3% | 1.4 | -2.5 | -2.6
CC(Cc1ccccc1)NC(=O)CC(c1ccccc1)c1ccccc1O (stereo unspecified) | . | . | 6.0 | -1.5 | .
CN1C(=O)CC(c2ccco2)Sc2ccccc21 (stereo unspecified) | -32.9 | -0.8% | 0.9 | . | -15.8
CCNC(=O)c1ccc(N(C)S(=O)(=O)c2cccs2)cc1 | . | -7.7% | -4.5 | -1.1 | 4.2
COc1ccc(-c2ccc(CCC(=O)O)n2CC(=O)Nc2cccc(OC)c2)cc1 | . | 6.5% | -5.4 | 0.7 | -1.9
Cc1nnc(SCC(=O)c2ccc(Cl)cc2)s1 | . | -5.3% | -2.4 | 74.8 | 1.2
Oc1cccnc1Sc1cccc(C(F)(F)F)c1 | . | . | -0.8 | 9.2 | .
Cc1cc(NC(=O)COC(=O)C(Cc2ccccc2)NC(=O)c2ccco2)no1 (stereo unspecified) | -34.4 | -1.9% | . | 12.7 | 8.3
Oc1ccc(/C=N/Nc2cccc(Cl)n2)c(O)c1 | . | . | -0.5 | -0.6 | .
CCNC(=O)CC1C(=O)N(c2ccc(F)cc2)C(=O)N1Cc1ccccn1 (stereo unspecified) | -24.3 | -4.0% | 6.9 | -10.1 | 2.8
C=CCNCCCCOc1ccc(OCC)cc1 | 2.5 | . | -7.2 | -2.9 | -1.9
CCc1nc(SCC(=O)O)c2c3c(sc2n1)COC(C)(C)C3 | . | . | -0.4 | -1.9 | .
CCOC(=O)C(=NCCCN1CCOCC1)NNc1cccc(C(F)(F)F)c1 | . | ? | -9.2 | 97.2 | -30.1
Cn1ccs/c1=N\C(=O)Nc1cccc(Cl)c1 | . | 4.3% | 2.9 | -1.8 | -1.4
COC(=O)C(Cc1ccc(OC(=O)c2ccccc2Cl)cc1)N1Cc2ccccc2C1=O (stereo unspecified) | -2.7 | 26.6% | 14.8 | 18.8 | -3.6
O=C(OCC(=O)N1CCOCC1)c1cc(F)c(F)cc1Cl | . | . | 2.1 | 9.9 | .
COn1c(SCc2cccc(Cl)c2)nc2ccccc2c1=O | 3.3 | 1.2% | 0.5 | -2.2 | 0.9
C=CCNC(=S)NNC(=O)c1csc(C)c1CC | -5.9 | -5.8% | -2.5 | -9.3 | 5.9
CCCCC(=O)Nc1nn(CC)c2nc3c(C)cccc3cc12 | . | . | -1.4 | 3.8 | .
CCN(CC)S(=O)(=O)c1cccc(C(=O)NCC(c2ccccc2)N(C)C)c1 (stereo unspecified) | . | -12.7% | -2.9 | -0.5 | 4.2
O=C(COC(=O)c1ccccc1C(=O)c1ccc(Cl)c([N+](=O)[O-])c1)NC1CCCCCC1 | -22.0 | -10.0% | 10.8 | 5.1 | -30.5
Nc1ccccc1NC(=O)c1ccccc1 | -7.4 | 14.8% | 2.8 | -0.2 | 7.1
CC(C)(C)NC(=O)COc1ccc(-c2ccccc2)cc1 | -7.9 | 9.1% | 1.9 | 1.4 | 4.2
CCN(CC(=O)NCc1ccc(Cl)cc1)C(=O)CN1C(=O)NC(CC)(c2ccccc2)C1=O (stereo unspecified) | . | . | 0.1 | -1.3 | .
Cc1ccc(SCC(=O)NCC2CCCO2)cc1 (stereo unspecified) | . | -8.9% | -5.3 | -3.2 | 9.8
CC(C)NC(=O)C1CCCN(c2nnc(-n3cccc3)s2)C1 (stereo unspecified) | -45.2 | -5.1% | -5.1 | 3.8 | 6.5 | Arbovirus anti repeat=1.9
O=C(NCCS(=O)(=O)NCc1cccnc1)c1ccccc1 | . | . | -0.5 | 1.6 | .
CC(=O)CSc1nc2cc3c(cc2cc1C#N)OCCO3 | . | 1.2% | -3.5 | 4.9 | -5.0
CC1(c2ccc3ccccc3c2)NC(=O)N(CC(=O)N2CCN(S(=O)(=O)c3ccccc3F)CC2)C1=O (stereo unspecified) | . | . | 0.5 | -12.4 | .
COc1ccc(-c2cc3c(=O)n(CC(=O)Nc4cccc(Cl)c4)ncn3n2)cc1 | . | . | 2.9 | 7.5 | .
O=C(NCCN1CCN(C(=O)Nc2ccccc2)CC1)Nc1ccccc1 | -4.2 | -9.3% | 1.0 | -5.3 | 4.5 | Arbovirus anti repeat=3.0
N#CCc1c(C#N)c(N)nc(Nc2ccccc2)c1C#N | . | 0.5% | -16.0 | -8.7 | .
Cc1ccccc1-c1cc2nc(C)c(Cl)c(=O)n2[nH]1 | . | . | -0.8 | -1.3 | .
O=C(c1ccco1)N1CCN(S(=O)(=O)c2ccc(Oc3ccccc3)cc2)CC1 | 1.8 | -4.7% | 6.1 | -3.5 | 1.0
CN(c1cccc2cccnc12)S(=O)(=O)c1ccccc1 | . | . | -0.3 | 2.4 | .
CCc1cc2c(=O)n(-c3ccccc3)c(=S)[nH]c2s1 | -17.6 | -2.6% | -1.3 | -11.6 | 6.3
Cc1cccc(N(C(=O)CCC(=O)Nc2cc(C)on2)C(C(=O)NC2CCCC2)c2ccncc2)c1 (stereo unspecified) | -11.1 | 1.3% | -0.3 | -7.2 | 6.0
O=C(Cc1ccc(Cl)cc1)Nc1ncccn1 | . | -9.3% | 0.4 | 13.1 | -1.0
COc1ccc(/C=N/n2c(C)nc3ccccc3c2=O)cc1OC | . | . | -1.1 | 0.3 | .
CC(C)c1ccc(NC(=O)N2CCN(S(=O)(=O)c3ccccc3)CC2)cc1 | . | -6.7% | 1.1 | -3.2 | -37.7

Compounds listed so far with a nitro group on carbon, in the order listed:
SMILES | YopH PTP inh | Mtb H37Rv | RecA splice inh | Mtb bLac sens | Arbovirus anti | others
Cc1ccc(N(CCCCN2C(=O)c3ccccc3C2=O)C(=O)c2cccc([N+](=O)[O-])c2)cc1 | -30.7 | 1.1% | 7.8 | 4.1 | 5.5
N#Cc1cc([N+](=O)[O-])ccc1NCC1CCCO1 (stereo unspecified) | . | . | 1.7 | 1.0 | .
O=C(COC(=O)c1ccccc1C(=O)c1ccc(Cl)c([N+](=O)[O-])c1)NC1CCCCCC1 | -22.0 | -10.0% | 10.8 | 5.1 | -30.5

The results go on.
SMILES | YopH PTP inh | Mtb H37Rv | RecA splice inh | Mtb bLac sens | Arbovirus anti | others
CC(=O)Nc1cccc(OCc2ccc(F)cc2)c1 | . | >100µM* | 0.1 | -1.2 | -1.1
COc1ccc(-n2c(SCc3nnc(-c4ccccc4)o3)nnc2-c2ccccc2)cc1 | -38.5 | -0.5% | 2.7 | ? | -1.4
O=C(c1cccc(N2CCCC2=O)c1)N1CCC2(CC1)OCCO2 | -15.2 | -23.8% | -3.6 | -11.6 | 7.0
c1csc(-c2csc3ncnc(NCCCN4CCOCC4)c23)c1 | 10.8 | -6.9% | 3.4 | -2.0 | 18.0
OCCN(Cc1ccccc1)Cc1ccc(F)c(F)c1 | -37.4 | -0.7% | -0.6 | 16.7 | 7.0
CCN(CC)S(=O)(=O)c1cc([N+](=O)[O-])ccc1NNC(=O)Nc1ccc(Cl)c(Cl)c1 | -34.3 | 38.4% | 23.2 | 9.9 | -8.6
NS(=O)(=O)c1ccc2ccccc2c1 | . | -1.0% | 1.7 | -7.3 | .
Cc1csc(NC(=O)CSc2nnc(C)s2)n1 | -32.3 | 6.7% | -0.3 | -8.9 | 0.2
Cc1ccc(N2C(=O)N(CC(=O)Nc3ccc(C)c(C)c3[N+](=O)[O-])C(=O)C2C)cc1 (stereo unspecified) | . | 6.4% | 0.8 | -5.1 | 0.1
COc1ccc(C2CC2/C(=N/OC(=O)c2cccs2)c2ccccc2)cc1 (stereo unspecified) | 2.7 | 70.9% | 2.8 | 86.4 | 1.6
COc1ccc(C(=O)COc2ccccc2N2C(=O)C3C4C=CC(C4)C3C2=O)cc1 (stereo unspecified) | -20.8 | 8.9% | 0.4 | -12.7 | 7.5
O=C(O)C1CCCCC1C(=O)Nc1ccc(OCc2ccccc2)cc1 (stereo unspecified) | . | . | 0.2 | 74.6 | .

Among those listed so far, these have an aryl methoxy group:
SMILES | YopH PTP inh | Mtb H37Rv | RecA splice inh | Mtb bLac sens | Arbovirus anti | others
COc1cccc(C(=O)Oc2ccc3ccc(O)cc3c2)c1 | . | . | 7.6 | 88.1 | .
COc1ccc(Cc2nnc(NC(=O)C3CCN(C(=O)c4ccco4)CC3)s2)cc1 | . | . | 2.8 | 2.3 | .
COc1ccc2c(c1)c1c3n2CCN(C)C3=NCC1 | -17.4 | -9.7% | -3.5 | 41.1 | -1.2
C=CCc1ccc(OCC(O)CO)c(OC)c1 (stereo unspecified) | 7.8 | . | -5.8 | 0.4 | 4.3
COc1ccc(-c2ccc(CCC(=O)O)n2CC(=O)Nc2cccc(OC)c2)cc1 | . | 6.5% | -5.4 | 0.7 | -1.9
COc1ccc(-c2cc3c(=O)n(CC(=O)Nc4cccc(Cl)c4)ncn3n2)cc1 | . | . | 2.9 | 7.5 | .
COc1ccc(/C=N/n2c(C)nc3ccccc3c2=O)cc1OC | . | . | -1.1 | 0.3 | .
COc1ccc(-n2c(SCc3nnc(-c4ccccc4)o3)nnc2-c2ccccc2)cc1 | -38.5 | -0.5% | 2.7 | ? | -1.4
COc1ccc(C2CC2/C(=N/OC(=O)c2cccs2)c2ccccc2)cc1 (stereo unspecified) | 2.7 | 70.9% | 2.8 | 86.4 | 1.6
COc1ccc(C(=O)COc2ccccc2N2C(=O)C3C4C=CC(C4)C3C2=O)cc1 (stereo unspecified) | -20.8 | 8.9% | 0.4 | -12.7 | 7.5
